Compound activity (PubChem)
RanGTP-Impb inh: inhibitors of RanGTP-importin-beta interaction, primary screen, biochemical, FRET, CFP-Ran, YFP-importin-beta, homogeneous. cell-free CFP-Ran/YFP-importin-beta FRET ratio. inhibition, % (no concentration beside the values). 300,000 tested, 1.1% active;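 active means most replicates above 15%; inconclusive means exactly half above 15%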;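 further: 0% = DMSO wells and 100% = Ran loaded with GDP instead of GTP; wells of about 40 µL received 100 nL stock; the first replicate is given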
HNF4A DNA FP: change in binding of human HNF4 alpha to DNA. HNF4a-FITC DNA binding, fluorescence polarization, 1 h. activity change, % at 10 µM. 360,000 tested, 0.3% active. AID 1224865; in the data active means activity change above about 30%, passing the limit was not always enough;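 further: controls were the assay level and a saturating level of protein; the project sought stronger binding though the title names inhibitors; some compounds called inactive have numbers as strong as hits; positive values seem to mean higher polarization but the record does not say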
Target sequence (P41235 whole entry, looked up): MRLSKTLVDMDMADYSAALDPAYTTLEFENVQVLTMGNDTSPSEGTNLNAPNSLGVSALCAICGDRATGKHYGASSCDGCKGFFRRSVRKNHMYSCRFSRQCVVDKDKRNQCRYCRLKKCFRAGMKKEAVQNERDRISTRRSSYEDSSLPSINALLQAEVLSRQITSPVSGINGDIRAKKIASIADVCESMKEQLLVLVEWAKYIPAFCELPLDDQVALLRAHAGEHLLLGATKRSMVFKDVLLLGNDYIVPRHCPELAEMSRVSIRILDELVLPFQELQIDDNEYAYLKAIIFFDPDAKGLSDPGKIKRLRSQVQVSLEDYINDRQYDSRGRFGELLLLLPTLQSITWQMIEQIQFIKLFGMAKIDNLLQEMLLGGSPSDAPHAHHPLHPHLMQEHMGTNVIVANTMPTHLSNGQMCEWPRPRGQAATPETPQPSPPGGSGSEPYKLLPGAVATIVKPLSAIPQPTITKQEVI
AF4-AF9 inh: blocks AF4 peptide binding to human AF9 | P42568 | AlphaScreen, biotin-AF4 peptide binding to FLAG-AF9 | inhibition, % at 10 µM | 350,000 tested, 0.47% active | AID 651704;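 active means every replicate reaching a set inhibition limit, whatever the replicate mean, cut at about 25% in these data; inconclusive means mean inhibition reaches that limit but some replicates miss it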;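 further: 0% = plate neutral control median and 100% = total signal loss; the record names both 10 and 1 µM as test concentration; the first replicate is given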
Vif A3G: inhibitors of Vif binding to APOBEC3G peptide, primary screen, biochemical, TR-FRET, GST-Vif 1-94, biotin-A3G peptide, dose response retest (AID 1117319). TR-FRET GST-Vif / biotin-A3G peptide binding; higher % means a stronger effect; test concentration not given here; strong numbers were not always called active. one-dose inhibition, %; IC50 in µM for titrated hits. 260,000 tested, 0.57% active;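 active means above the screen mean plus three standard deviations and confirmed in dose response; inconclusive means results disagree or hit not tested in dose response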;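 further: Vif residues 1-94 fused to GST binding biotinylated APOBEC3G peptide 110-148; 0% = full assay without inhibitor and 100% = GST in place of GST-Vif; retest series ran down from 100 µM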
Ecoli growth: blocks Escherichia coli growth; OD600 absorbance (test concentration not listed); 330,000 tested, 0.21% active; AID 1053175; OD600, 23 h; stronger effect = lower value;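 active means OD600 absorbance below the run mean of sample wells minus 3.6 SD, in any replicate, cut at about 0.56 in these data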;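 further: stock transfer was 300 nL into about 60 µL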
FGF22 binding: shifts melting point of recombinant human FGF22; Q9HCT0; recombinant FGF22 thermal shift, SYPRO orange fluorescence; percent of sucrose octasulfate shift, DMSO zero; calls only at 9.99 µM; 340,000 tested, 1.5% active; AID 651658;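 active means melting point raised past a set limit in the mean and every replicate; inconclusive means no clear call; three in four hits are not shown here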
Target sequence (Q9HCT0 whole entry, looked up): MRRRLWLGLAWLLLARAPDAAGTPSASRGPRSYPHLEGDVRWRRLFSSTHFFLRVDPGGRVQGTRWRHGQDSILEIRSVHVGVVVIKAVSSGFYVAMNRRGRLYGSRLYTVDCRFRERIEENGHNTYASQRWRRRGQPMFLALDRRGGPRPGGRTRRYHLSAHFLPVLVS
UCH37 DUB inh: blocks the human deubiquitinase UCH37; 330,000 tested, 0.33% active; AID 588478; purified proteasome/UCH37, Ub-AMC cleavage fluorescence; inhibition, % (test concentration not listed); Q9Y5K5;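 active means mean of two replicates above 20%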;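 further: 0% = compound-free wells with enzyme and 100% = wells lacking proteasome; stock transfer was 100 nL into about 20 µL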
Target sequence (Q9Y5K5 whole entry, looked up): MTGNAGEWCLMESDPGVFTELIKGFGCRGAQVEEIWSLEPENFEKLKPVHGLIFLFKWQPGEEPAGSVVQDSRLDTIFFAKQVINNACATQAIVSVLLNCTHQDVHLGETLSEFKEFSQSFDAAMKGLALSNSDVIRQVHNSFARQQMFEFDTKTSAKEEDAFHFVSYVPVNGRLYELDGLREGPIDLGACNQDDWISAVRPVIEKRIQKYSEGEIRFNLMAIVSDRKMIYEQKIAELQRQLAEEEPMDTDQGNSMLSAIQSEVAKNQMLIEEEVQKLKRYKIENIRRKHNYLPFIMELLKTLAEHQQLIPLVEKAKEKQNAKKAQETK
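Schedule: 30 min plus 25 min, room temperature / Material: human UCH37 within purified proteasomes / Technique: AMC fluorescence intensity at 355/460 nm / Buffer or medium: pH 7.4 Tris-HCl (50 mM) with ovalbumin, ATP-MgCl2, DTT / Controls: wells without proteasome as full block, compound-free enzyme plus substrate as uninhibited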
An asterisk follows results filed as active; i = inactive; ? = inconclusive; . = no result given; + = active, no number; & = joins results of further samples.

SMILES | RanGTP-Impb inh | HNF4A DNA FP | AF4-AF9 inh | Vif A3G | Ecoli growth | FGF22 binding | UCH37 DUB inh
COc1ccc(OC2C(=O)N(Cc3ccc4c(c3)OCO4)C2c2sccc2C)cc1 (centres undefined) | 6.5 | -3.3 | -6.1 | -9% | 0.71 | i | 4.9
CCCN(CCO)Cc1cccc(Br)c1 | 20* | 6.0 | . | -2% | 0.73 | . | 1.3
CC1(C)CC[C@]2(C(=O)n3ccnc3)CC[C@]3(C)[C@H](C(=O)C=C4[C@@]5(C)C=C(C#N)C(=O)C(C)(C)[C@@H]5CC[C@]43C)[C@@H]2C1 | . | -19 | -1.2 | . | . | i | .
Cc1ccc(NS(=O)(=O)c2ccc(Cl)c(C(=O)O)c2)cc1S(=O)(=O)N1CCOCC1 | -0.5 | 8.4 | 13 | . | 0.72 | i | -1.5
CCOc1ccccc1N1CC(C(=O)Nc2ccccc2CC)CC1=O (centres undefined) | 2.4 | -0.2 | 0.8 | . | 0.63 | i | 1.4
Nc1ccc2nc(-c3cccc(-c4nc5ccc(N)cc5[nH]4)c3)[nH]c2c1 | 9.3 | 1.0 | 4.6 | 9% | 0.65 | i | -8.0
COc1cc(OC)cc(-c2c(-c3cccs3)c3cc(-c4ccc(OC)nc4)ccc3n2C)c1 | . | 5.5 | 0.9 | . | 0.76 | i | -14
COC(=O)NNC(=O)COc1ccc(Cl)cc1 | 6.5 | 2.6 | -2.8 | 0% | 0.69 | i | 1.0
NC(=O)c1ccc(-c2nnn(CC(=O)N(C3CCCCC3)C3CCS(=O)(=O)C3)n2)cc1 (centres undefined) | . | -0.8 | -0.7 | . | 0.66 | i | 3.5
CC1CCN(Cc2c(C(=O)N/N=C/c3cc(Cl)ccc3O)nnn2-c2nonc2N)CC1 | ? | 5.9 | -1.7 | . | . | i | .
CCC(C)NC(=O)c1ccccc1NC(=O)COc1ccc(OC)cc1 (centres undefined) | -2.1 | -5.1 | . | -3% | . | . | .
O=C(COC(=O)CNC(=O)C12CC3CC(CC(C3)C1)C2)NC1CCS(=O)(=O)C1 (centres undefined) | 1.0 | 0.5 | -2.0 | . | 0.67 | i | 1.3
Cc1cc(=O)oc2c(C)c(OC(C)C(=O)NCCN3CCOCC3)ccc12 (centres undefined) | -2.8 | 1.4 | -5.4 | -1% | 0.66 | i | -18
CN(C)S(=O)(=O)c1ccc(C(=O)OCC(=O)Nc2ccc(OC(F)F)cc2)cc1 | -1.7 | 2.8 | -1.5 | -3% | 0.7 | i | 2.0
c1ccc2c(c1)CCCC2NC1=NCCC1 (centres undefined) | -0.7 | 0.1 | . | 2% | 0.67 | . | 3.9
C=C(C)Cn1c(-c2ccc(OC)cc2)nc2ccccc21 | -0.5 | 0.8 | . | ? | 0.7 | . | -1.4
Cc1cc(C(C2C(=O)CC(C)(C)CC2=O)C2C(=O)CC(C)(C)CC2=O)cc(C)c1OC(F)F | 4.1 | -2.4 | 2.1 | . | 0.69 | . | 3.3
O=C(c1ccc([N+](=O)[O-])cc1)N(Cc1ccccc1)c1ccccn1 | 5.8 | 5.1 | 3.3 | 3% | 0.73 | i | 4.6
Cc1noc(C)c1NC(=O)N(C)C[C@@H]1Oc2ncc(Br)cc2C(=O)N([C@H](C)CO)C[C@@H]1C | . | 2.1 | 1.9&1.5 | . | . | i | .
O=C(C1CCN(S(=O)(=O)c2cccc3cccnc23)CC1)N1CCN(C2CCCC2)CC1 | -0.2 | 3.5 | -1.4 | -3% | 0.69 | i | 1.2
COc1cccc2c(=O)n(CC(=O)NCCc3ccccc3)ccc12 | 1.4 | -3.3 | -10 | -13% | 0.69 | i | -0.8
Cc1ccc2oc(C(Cl)(Cl)Cl)cc(=O)c2c1 | -0.2 | -3.5 | 0.9 | -1% | 0.71 | i | 4.6
CCS(=O)(=O)N1Cc2ccccc2CC1C(=O)Nc1nccs1 (centres undefined) | -0.1 | -2.3 | 0.9 | -2% | 0.66 | i | 1.8
CCCCn1c(-c2cccc3ccccc23)nc2cc3[nH]c(=O)c(C(C)C)nc3cc21 | -0.8 | 16 | 4.9 | . | 0.68 | i | -17
O=C(c1cccs1)N1CCN(c2cccc(Cl)c2)CC1 | 1.0 | -3.6 | 0.5 | . | 0.62 | i | 2.7
SMILES | RanGTP-Impb inh | HNF4A DNA FP | AF4-AF9 inh | Vif A3G | Ecoli growth | FGF22 binding | UCH37 DUB inh
CC(C)Cc1nn2c(N)c(/C=C3\C=Nc4ccccc43)c(=O)nc2s1 | 25* | -1.7 | 0.9 | . | . | + | -4.1
CC1(C)CC(=O)C=C(c2cccc(O)c2)C1 | . | -2.4 | . | . | 0.69 | i | 0.8
Cc1c(C(=O)N2CCN(S(=O)(=O)c3ccc(F)cc3)CC2)oc2ccccc12 | -1.9 | -4.8 | -3.5 | -3% | 0.67 | i | 1.0
C=C1CCN([C@@H](Cc2ccccc2)C(=O)NCc2ccc(Cl)c(Cl)c2)S(=O)(=O)c2ccccc21 | -3.2 | -0.7 | 0.9 | . | . | i | 4.9
CN(C(=O)OCc1ccccc1)C(CC(N)=O)C(=O)O (centres undefined) | 1.3 | -2.4 | . | -2% | 0.69 | . | 2.3
Cc1c(NS(=O)(=O)N2CCCC2)c(=O)n(-c2ccccc2)n1C | -2.8 | 1.9 | . | -2% | 0.65 | . | -0.6
Cc1cccc(C(=O)O/N=C2\CCSc3ccc(C)cc32)c1 | -1.5 | -3.0 | . | 33% | . | . | .
Cc1cc2nc(C(C)(C)C)cc(N)n2n1 | 2.7 | -1.8 | 0.2 | -2% | . | i | .
[2H]c1c([2H])c([2H])c(C(=O)c2sc(N3CCCCCC3)nc2-c2ccccc2)c([2H])c1[2H] | ? | 0.3 | . | -11% | 0.71 | . | .
CCc1c(C)c2ccc(OCC(=O)OC(C)C)c(C)c2oc1=O | 2.3 | 3.7 | -1.7 | -9% | 0.72 | . | -9.9
CC(C)(C)C(=O)/C=c1\[nH]c(=O)/c(=C\c2ccc(F)cc2)s1 | -0.4 | 4.5 | . | 14% | . | . | .
COc1ccc(OC)c(NC(=O)Cn2c(=O)n(CC(=O)NCc3ccco3)c(=O)c3ccccc32)c1 | 8.6 | -0.7 | . | -1% | 0.75 | . | 0.3
COc1ccccc1N1CCN(C(=O)CCC(=O)Nc2nnc(C(C)C)s2)CC1 | 3.7 | -3.2 | 0.5 | . | 0.69 | i | 2.7
Cc1c[nH]c2ccccc12 | . | -0.7 | . | . | 0.67 | . | -0.6
Cn1c(C(=O)N2CCCc3ccccc32)cc2c(=O)n3ccccc3nc21 | 4.6 | . | . | -5% | 0.71 | . | -67
COc1cc(-c2nc(C(F)(F)F)c(OC)o2)cc(OC)c1OC | -2.6 | 3.0 | 1.1 | . | . | i | .
CN(Cc1c(F)cccc1Cl)C(=O)c1cccc(S(=O)(=O)N2CCN(Cc3ccccc3)CC2)c1 | . | 5.2 | 18 | . | . | i | .
COC(=O)c1sc(NC(=S)NC(=O)c2cccc(Br)c2)nc1C | -6.4 | 1.3 | -6.6 | -85% | 0.69 | i | 5.5
CC1(C)CC(=O)C=C(C(=O)N2CCCC(C(=O)c3cccc(Cl)c3)C2)O1 (centres undefined) | -2.1 | -1.6 | 0.5 | 10% | 0.65 | i | 1.4
CC(C)(C)NC(=O)C(c1ccc(F)cc1)N(Cc1ccco1)C(=O)CCC(=O)Nc1ccccn1 (centres undefined) | -0.4 | -0.1 | -1.7 | . | 0.67 | i | 3.6
O=C(CN1CCCc2ccccc21)N/N=C/c1ccc(F)cc1F | -4.3 | 3.5 | -8.5 | -1% | . | i | .
Cc1ccc(S(=O)(=O)N2CC3CCC2C3)cc1 (centres undefined) | -0.7 | 3.1 | . | 4% | 0.74 | . | 4.6
O=C1C(=Cc2ccc(Cl)cc2)Cc2ccccc21 | . | 1.3 | 0.2 | . | . | i | .
Cc1cc(C(=O)N2CCC(Cc3ccccc3)CC2)no1 | . | -0.8 | 1.9 | -4% | 0.69 | i | 0.4
Cc1ccc2c(c1)c(C)cc[n+]2Cc1ccccc1 | 4.1 | 0.7 | . | . | 0.7 | . | -11

No new results follow: an excerpt of the list.
SMILES | RanGTP-Impb inh | HNF4A DNA FP | AF4-AF9 inh | Vif A3G | Ecoli growth | FGF22 binding | UCH37 DUB inh
Cc1cc(C(=O)N2CCC(Cc3ccccc3)CC2)no1 | . | -0.8 | 1.9 | -4% | 0.69 | i | 0.4
Cc1ccc2c(c1)c(C)cc[n+]2Cc1ccccc1 | 4.1 | 0.7 | . | . | 0.7 | . | -11

Additional compounds
SMILES | RanGTP-Impb inh | HNF4A DNA FP | AF4-AF9 inh | Vif A3G | Ecoli growth | FGF22 binding | UCH37 DUB inh
CCOc1cc(C(C(=O)NCC2CCCO2)N(C(=O)Cn2nnc3ccccc32)c2ccccc2OC)ccc1O (centres undefined) | 2.6 | 1.2 | 2.8 | . | 0.64 | i | 3.8
COc1ccc(C(=O)n2nc(C#N)c(C#N)c2N)cc1 | 8.5 | 1.5 | . | -9% | 0.62 | i | -0.1
Cc1c(N=C2SCC(=O)N2/N=C\c2ccc(Br)cc2)c(=O)n(-c2ccccc2)n1C | 4.8 | -0.1 | 6.5 | -3% | . | i | .
COc1cc(C(=O)NC(c2ccccc2)c2ccccc2)cc(Cl)c1OC | 1.4 | -3.6 | . | . | 0.65 | . | 2.5
C/C(CC(=O)Nc1ccc2c(c1)OCCO2)=N\NC(=O)c1ccccc1Cl | -4.8 | -0.9 | -2.2 | . | . | i | .
O=C(CNC(=O)c1ccc(F)cc1)c1ccc(Cl)cc1 | 5.2 | 6.7 | -1.4 | . | 0.61 | i | 1.5
NC(=O)c1cccn(Cc2ccc(C(F)(F)F)cc2)c1=O | 1.3 | 3.5 | -1.4 | 2% | 0.7 | i | -50
COc1ccc(C(=O)Nc2nc3ccc(OC)cc3s2)cc1 | -1.4 | 0.8 | -5.0 | . | 0.73 | i | -86
O=C(O)C(c1ccccc1)C(O)C1CCCC1 (centres undefined) | . | -1.8 | 5.3 | 4% | 0.67 | i | 2.1
Fc1ccccc1-c1cc2cc3c(cc2cn1)OCO3 | . | -1.1 | 0.4 | . | 0.66 | i | 1.4
C=C(Br)CN1[C@@H](Cc2ccccc2)[C@H](O)[C@@]23C=C[C@@H](C[C@@H]2S1(=O)=O)O3 | . | 3.0 | 1.0 | . | . | i | -1.3
O=C1CCN(CCc2ccccc2)CCN1[C@H](CSc1ccc(Br)cc1)c1ccccc1 | -1.4 | 13 | . | . | . | i | -2.5
CN(Cc1ccccc1)C(=O)[C@@H]1CCCN1C(=O)[C@@H]1CCCN1C(=O)c1cccc2ccccc12 | . | -1.2 | 0.5 | . | . | i | .
O=C(CSc1nnnn1-c1ccc(F)cc1F)Nc1ccccc1F | 4.4 | -0.8 | 1.0 | . | 0.73 | i | 2.8
Cc1cc(=O)oc2cc(NC(=O)COc3cccc(C(F)(F)F)c3)ccc12 | . | -1.4 | -2.5 | -8% | 0.69 | i | -104
CCc1ccc(NC(=O)C2=CC(c3cccs3)=NS(=O)(=O)N2C)cc1 | -1.2 | -1.5 | 9.9 | . | 0.81 | i | 4.3
CCCNC(=O)C1(O)c2cc(Br)ccc2NC(=O)N1c1ccc(Cl)cc1 (centres undefined) | -1.3 | 2.2 | -8.4 | 1% | 0.69 | i | 0.3
Cc1nnc(NC(=O)CCn2c(=O)oc3ccc(Cl)cc32)s1 | -2.2 | 0.3 | -5.3 | . | 0.69 | i | -8.3
O=C(Cn1ncc(Cl)c(Cl)c1=O)c1ccc2c(c1)OCCO2 | . | -3.9 | 0.4 | 50% | . | i | .
Cc1cc(N)ccc1S(C)(=O)=O | 2.2 | -1.3 | . | ? | 0.75 | . | 4.3

These rows are one share of the data. The share of hits here may be higher or lower than overall.
